Compound activity (PubChem)
Measles inh: inhibitors of measles virus growth in cells, primary screen, measles RdRp inhibitor project, cell-based, single point, HTS. z-score (concentration not given with the values). 0.1% of 33,000 active. infected Vero cells, GFP fluorescence, 64 h; stronger effect = lower value. AID 745, 2007;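 active = z-score under -3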;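 note: score is relative to mean and SD of the compound wells of a plate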
An asterisk follows results filed as active.

COC(=O)C(Sc1c[nH]c2ccccc12)(C(F)(F)F)C(F)(F)F
  Measles inh: -0.49
COc1ccccc1N1CCN(c2ncc(C(=O)N3CCN(c4ccc(F)cc4)CC3)c3ccccc23)CC1
  Measles inh: 0.7
O=C(OCn1c(=O)oc2cc(Cl)ccc21)c1ccc(Cl)cc1
  Measles inh: -0.06
CC(=O)N(C1=C(N(C)C)C(=O)c2ccccc2C1=O)c1cccc(I)c1
  Measles inh: -0.57
CC(=O)c1ccc(NC(=O)c2[nH]c(C)c(C(C)=O)c2C)cc1
  Measles inh: -2.25
Cc1cc(N2CCCCC2)nc2ccc(NC(=O)c3cccc(C(F)(F)F)c3)cc12
  Measles inh: 2.52
Cc1ccc(S(=O)(=O)n2cnc3ccccc32)cc1C
  Measles inh: -0.75
O=C(O)c1cccnc1SC1CC(=O)N(c2ccc3c(c2)OCO3)C1=O (centres undefined)
  Measles inh: -0.44
COc1ccc(-c2cnc(-c3ccc(C=Cc4ccccc4)cc3)o2)cc1
  Measles inh: 0.69
COc1cccc(C2C(C(=O)OC3CCCCC3)=C(C)NC3=C2C(=O)CC(c2ccccc2)C3)c1OC (centres undefined)
  Measles inh: -0.92
CCCn1c(CCNC(=O)c2ccc(OC)c(OC)c2)nc2ccccc21
  Measles inh: -0.49
CCn1c(=NC(=O)c2ccc(S(=O)(=O)N3CCCC3)cc2)sc2cc(C(=O)OC)ccc21
  Measles inh: 0.19
COc1cc(C2NC(=O)NC(C)=C2C(=O)OC(C)C)cc(Br)c1O (centres undefined)
  Measles inh: 1.78
CCOc1ccc(C2/C(=C(\O)c3ccc(Cl)cc3)C(=O)C(=O)N2c2nc3ccccc3s2)cc1 (centres undefined)
  Measles inh: 1.27
COc1ccc(CCn2c(=O)[nH]c3cc(C(=O)NCc4ccccc4Cl)ccc3c2=O)cc1OC
  Measles inh: -0.16
CC(=O)Nc1c2c(nn1-c1cccc(Cl)c1)CS(=O)(=O)C2
  Measles inh: -1.62
O=[N+]([O-])c1ccc(CSc2nc3ccccc3c3nc(-c4ccccc4)nn23)cc1
  Measles inh: 1.58
O=C(NCc1ccc2c(c1)OCO2)c1cc(=O)[nH]c2ccc(Br)cc12
  Measles inh: 0.57
COc1ccccc1C1C(C(=O)Nc2ccc(C)cc2C)=C(C)Nc2nc3ccccc3n21 (centres undefined)
  Measles inh: -0.16
O=C(Nc1ccc2nn(-c3cccc(Cl)c3)nc2c1)c1ccccc1Cl
  Measles inh: -0.67
CCN(c1ccccc1)S(=O)(=O)c1ccc2[nH]cc(C(=O)N3CCC(C)CC3)c(=O)c2c1
  Measles inh: -0.43
NCCCC(=O)N1c2ccccc2Sc2ccc(Cl)cc21
  Measles inh: -0.85
CC(NS(=O)(=O)c1ccc2c(c1)CCC(=O)N2)c1ccccc1 (centres undefined)
  Measles inh: -0.49
O=C(c1cccs1)N1CCN=C1SCc1cccc(Cl)c1
  Measles inh: 0.6
CCCN(CCC)S(=O)(=O)c1ccc2c(c1)CC(C)N2C(=O)CC (centres undefined)
  Measles inh: 0.39

Filtered by structure, the entries above with fluorine.
COC(=O)C(Sc1c[nH]c2ccccc12)(C(F)(F)F)C(F)(F)F
  Measles inh: -0.49
COc1ccccc1N1CCN(c2ncc(C(=O)N3CCN(c4ccc(F)cc4)CC3)c3ccccc23)CC1
  Measles inh: 0.7
Cc1cc(N2CCCCC2)nc2ccc(NC(=O)c3cccc(C(F)(F)F)c3)cc12
  Measles inh: 2.52

(list continues)
CC(=O)c1sc(Nc2nc(C)cc(C)n2)nc1C
  Measles inh: 0.09
C=CCOC(=O)C1=C(C)N=C2SC(CC)C(=O)N2C1c1ccc(Cl)cc1 (centres undefined)
  Measles inh: 1.47
COC(=O)c1c(NC(=O)COc2ccc(Cl)cc2C)sc2c1C(C(=O)OC)CC2 (centres undefined)
  Measles inh: -0.2
CCOc1cc([N+](=O)[O-])cc(C=Nc2ccc3ncccc3c2)c1O
  Measles inh: 0.63
COc1ccc(NS(=O)(=O)c2cc(Br)cc3c2N(C(C)=O)CC3)cc1Cl
  Measles inh: 0.67
Cc1ccc(-n2c3nc(=O)n(C)c(=O)c-3cc3c(Cl)cccc32)cc1C
  Measles inh: 1.25
COCCNC(=O)c1cn(CCOC)c(=O)c2c1c1ccccc1n2C
  Measles inh: 1.23
CC1=NN(c2ccccc2)C(=O)C1C(c1ccc2c(c1)OCO2)C1C(=O)N(c2ccccc2)N=C1C (centres undefined)
  Measles inh: 1.24
COCCCNC(=O)c1cnn2c(C)c(Cc3ccccc3)c(C)nc12
  Measles inh: -0.16
O=C(CSc1nc(-c2ccccc2)cn1-c1ccc(F)cc1)c1cccs1
  Measles inh: -0.07
O=C(O)C1Cc2c([nH]c3ccccc23)C(c2ccc(O)c(O)c2)N1 (centres undefined)
  Measles inh: 0.3
O=C(O)CCCN1C(=O)c2cccc3c([N+](=O)[O-])ccc(c23)C1=O
  Measles inh: 8.7
Cc1cc(C)c2oc(-c3ccc(C)c(N)c3)nc2c1
  Measles inh: 0.03
COc1ccc(C2=CC(c3ccc(OC)c(OC)c3OC)n3nnnc3N2)cc1 (centres undefined)
  Measles inh: -0.43
C=CCn1ncc(Cc2cnn(CC=C)c2C)c1C
  Measles inh: 1.39
CC1Cc2ccccc2N1C(=O)CSc1nc(-c2ccco2)cc(C(F)(F)F)n1 (centres undefined)
  Measles inh: 0.17
O=C(Nc1ccc2c(c1)OCCO2)c1oc(=O)c2ccccc2c1-c1ccccc1
  Measles inh: -1
COc1ccc(C2C(C(=O)N3CCN(c4ccccc4F)CC3)CCC(=O)N2c2cc(OC)c(OC)c(OC)c2)cc1 (centres undefined)
  Measles inh: 0.18
CCCNC(=O)c1cnn2c1NC(c1cc(OC)c(OC)c(OC)c1)CC2C(F)(F)F (centres undefined)
  Measles inh: 1.58
Cc1ccc(-c2csc(NC(=O)C3CC=CCC3C(=O)O)c2C(=O)OC(C)C)cc1 (centres undefined)
  Measles inh: -1.5
CCOC(=O)c1c(C)oc2ccc(OCc3ccc(C)cc3)cc12
  Measles inh: 0.63
O=C(c1cc2ccccc2nc1-c1ccco1)C(F)(F)F
  Measles inh: 0.74
Clc1ccccc1-c1nnc(-c2cccnc2)o1
  Measles inh: 0.16
COc1ccc(NC(=O)CSc2nc(O)cc(=O)[nH]2)cc1
  Measles inh: 1.21
CCOC(=O)c1sc(N=Cc2ccc3c(c2)OCCOCCOCCO3)c(C(=O)OCC)c1C
  Measles inh: -0.57

Cc1ccc(Cn2c(COc3ccc(C)cc3)nc3ccccc32)cc1
  Measles inh: -1.49
NC1=C(C2C=Nc3ccccc32)C(=O)NC1=O (centres undefined)
  Measles inh: 0.96
Cc1c(C(=O)NC2CCCCC2)sc2ncnc(N3CCCCC3)c12
  Measles inh: -0.39
CC1CC(C)(C)NC(=S)N1CC(=O)N1CCCCC1 (centres undefined)
  Measles inh: 0.29
CC1(C)CC(=O)C2=C(C1)Nc1cc(C(=O)c3ccccc3)ccc1NC2c1cccnc1 (centres undefined)
  Measles inh: 1.05
COc1ccc2c(c1)C=CC1(O2)N(C)c2ccccc2C1(C)C (centres undefined)
  Measles inh: -0.51
CCc1nnc(SCC(=O)Nc2cccc(C)c2)nc1CC
  Measles inh: 1.33
CC1=CCC2C(=O)N(c3cccc(C(=O)OCC(=O)c4ccc(Br)cc4)c3)C(=O)C2C1 (centres undefined)
  Measles inh: 0.52
COC(=O)c1ccc(CN2CCCC2)o1
  Measles inh: -0.12
CCOC(=O)c1ccc2nc(C)cc(Nc3ccc(C(=O)OC)cc3)c2c1
  Measles inh: 0.43
COc1ccc(C(=O)Oc2c(Sc3ccccc3)c(C)nn2-c2ccccc2)cc1OC
  Measles inh: 0.07
Cc1nc2ccccc2n1S(=O)(=O)N(C)C
  Measles inh: -0.45
CCN(Cc1ccccc1)C(=O)Cn1c(=O)n(-c2ccc(OC)cc2OC)c(=O)c2c3c(sc21)CCCC3
  Measles inh: -0.74
COc1ccc(-c2cc(C(=O)Nc3cnn(Cc4ccccc4C)c3)no2)cc1OC
  Measles inh: 2.49
O=C(NCc1ccc(Cl)cc1)c1ccc2nc3ccc(Cl)cc3c(=O)n2c1
  Measles inh: 0.23
COc1ccc(C(=O)Nc2ccc(-c3nc4ncccc4o3)cc2)cc1
  Measles inh: -0.64
Cc1sc2nc3c(C(=O)NCCNc4ccc5ccccc5c4)cccn3c(=O)c2c1C
  Measles inh: -0.53
CCOC(=O)c1ccc2c(c1)C1C=CCC1C(c1ccc(OC)c([N+](=O)[O-])c1)N2 (centres undefined)
  Measles inh: -0.76
COc1cccc(CN2CCN(C(=O)c3cccs3)CC2)c1
  Measles inh: 0.72
CCC(C)(C(=O)NC1CCCCC1)N(Cc1cccs1)C(=O)c1ccccn1 (centres undefined)
  Measles inh: 0.32
CC(=O)N1CCc2cc(S(=O)(=O)NC(CC(C)C)C(=O)Nc3cccc(C(F)(F)F)c3)ccc21 (centres undefined)
  Measles inh: 0.79
CCOC(=O)C1=C(C)NC(C)=C(C(=O)OC)C1c1ccco1 (centres undefined)
  Measles inh: 0.11
CC(=O)Nc1ccccc1C(=O)C(=O)N1CCCCC1
  Measles inh: 1.26
Nc1ncnc2c1ncn2CC(O)CO (centres undefined)
  Measles inh: 0.03
COc1ccc(C(=O)Nc2cc3nn(-c4ccccc4)nc3cc2C)cc1[N+](=O)[O-]
  Measles inh: -0.24

COc1ccc(Cc2cnc(NC(=O)c3cccc([N+](=O)[O-])c3)s2)cc1
  Measles inh: -0.29
CCCc1cc2c(=O)c(-c3ccc(C(=O)OCC)o3)c(C)oc2cc1OC
  Measles inh: 1.12
O=C(CC(Nc1cccc(Br)c1)c1ccc(Cl)cc1)c1ccccc1 (centres undefined)
  Measles inh: 0.39
Cc1ccc(C2CC(C(F)(F)F)n3nc(C(=O)N4CCN(c5ccccc5)CC4)cc3N2)cc1 (centres undefined)
  Measles inh: 0.12
CC(O)c1nc2ccccc2n1Cc1ccc2ccccc2c1 (centres undefined)
  Measles inh: 1.77
COc1cc(NC(=O)c2ccc3c(=O)n(Cc4cccc(Br)c4)c(=S)[nH]c3c2)cc(OC)c1OC
  Measles inh: -1.41
COc1cccc(NC(=O)CSc2nc(N)cc(N)n2)c1
  Measles inh: 0.09
CC(C)(C)C(=O)CC(=O)Nc1ccc(Cl)c([N+](=O)[O-])c1
  Measles inh: 1.4
COc1ccc(C2C(C(=O)Nc3ccc(C)c(F)c3)CCC(=O)N2c2cc(OC)c(OC)c(OC)c2)cc1 (centres undefined)
  Measles inh: -1.86
Cc1ccc(NC(=O)CCS(=O)(=O)c2cc(Br)cc3c2N(C(=O)C2CC2)CC3)cc1Cl
  Measles inh: -0.72
Nc1ccc(C(=O)OCc2nc3cc4ccccc4cc3[nH]2)cc1
  Measles inh: -1.49
CCCCn1cc(C(=O)O)c2ccccc2c1=O
  Measles inh: 0.11
CC(=O)Oc1ccc(C2Nc3ccc(C(C)=O)cc3C3C=CCC32)cc1 (centres undefined)
  Measles inh: 1.16
CC(C)c1ccc(NC(=O)C(c2ccccc2)N(C)C(=O)c2ccc(=O)[nH]c2)cc1 (centres undefined)
  Measles inh: 1.4
CC(=O)Oc1ccc2nc(CN3C(=O)c4ccccc4C3=O)oc(=O)c2c1
  Measles inh: -1.03
Cc1cc(OCC(=O)Nc2cccc([N+](=O)[O-])c2)cc(C)c1Cl
  Measles inh: 0.28
CCCn1c2ccc(Br)cc2c2nc3cc(OCC)c(OCC)cc3nc21
  Measles inh: -0.25
CC1CCC(NC(=O)C2c3ccccc3C(=O)N2CCCN2CCOCC2)CC1 (centres undefined)
  Measles inh: -4.9*
COc1ccc(C2=NN(CC(=O)NC3CCCCC3C)C(=O)CC2)cc1 (centres undefined)
  Measles inh: 1.47
O=C(CN1CCN(Cc2ccccc2F)C1=O)NC1CCCCCCC1
  Measles inh: 1.04
CC(C)(C)c1ccc(-c2nc(Cc3ccc(Cl)cc3)no2)cc1
  Measles inh: 0.91
CCCOc1ccc(C2C(=O)N(C3CCCCC3)CC(=O)N2Cc2ccco2)cc1OC (centres undefined)
  Measles inh: -0.33
O=C(Nc1cccc(Br)c1)c1ccc(S(=O)(=O)N2CCc3ccccc3C2)cc1
  Measles inh: 1.37
Cc1ccc(CN2CCCC(C(=O)N3CCCCCC3)C2)cc1 (centres undefined)
  Measles inh: -1
CCOc1ccc(C(=O)Nc2cccc(C(=O)Nc3cccc4ccccc34)c2)cc1Br
  Measles inh: 0.06

Nc1nnc(-c2ccccc2)s1
  Measles inh: -0.64
Cc1ccc(-c2csc3ncn(CC(=O)c4ccc(Br)cc4)c(=O)c23)cc1
  Measles inh: 0.79
Cc1cc(C)nc(NS(=O)(=O)c2ccc(NC(=O)c3ccccc3I)cc2)n1
  Measles inh: -0.35
O=C(Oc1cc2oc(=O)c3c(c2cc1Cl)CCC3)c1ccco1
  Measles inh: 1.47
COC(=O)C1=C(NC(=O)c2ccc(C(C)(C)C)cc2)CCS1
  Measles inh: 0.93
Cc1cc(C)c(S(=O)(=O)N2CCN(CCN3C(=O)c4cccc5cccc(c45)C3=O)CC2)c(C)c1
  Measles inh: -0.98
CC(=O)N(C)c1ccc(Nc2c(C)cc(C)cc2C)c2c1C(=O)c1ccccc1C2=O
  Measles inh: -1.44
N#Cc1c2c(c(N3CCN(CCO)CC3)n3c1nc1ccccc13)CCCC2
  Measles inh: -0.68
O=C(c1ccccc1)N1CCN(CC(O)COc2ccc([N+](=O)[O-])cc2)CC1 (centres undefined)
  Measles inh: 1
C=CS(=O)c1sc(Cl)c(N2CCOCC2)c1[N+](=O)[O-] (centres undefined)
  Measles inh: -0.1
COc1ccc(-n2nc3ccc(NC(=O)c4ccc5ccccc5c4)cc3n2)cc1
  Measles inh: -1.66
CC(C)C12C=CC(C)(CC1)C1C(=O)N(c3ccccc3)C(=O)C12 (centres undefined)
  Measles inh: -0.53
O=c1c2ccccc2nc(C=Cc2cccc([N+](=O)[O-])c2)n1-c1cccc2ccccc12
  Measles inh: -0.34
CN1CCN(C(=O)c2ccc3c(=O)n(CCC4=CCCCC4)c(=S)[nH]c3c2)CC1
  Measles inh: -0.41
CCc1ccc(NC(=O)CSc2nnnn2-c2ccc(C(=O)O)cc2)cc1
  Measles inh: -0.72
Cc1noc(C)c1S(=O)(=O)N1CCC(C(=O)N2CCc3ccccc32)CC1
  Measles inh: 0.85
COc1ccc(-c2nnc(Nc3ccc(F)cc3)c3ccccc23)cc1
  Measles inh: -0.03
COc1ccc(NC2=CC(=NS(=O)(=O)c3ccc(Br)cc3)c3ccccc3C2=O)cc1
  Measles inh: 0.58
Cc1c(C(=O)OCCOC(C)C)[nH]c2c1C(=O)CC(c1ccccc1Cl)C2 (centres undefined)
  Measles inh: -0.38

This is a subset; rates above refer to the full screens.
